Compound activity: PubChem BioAssay, Broad Institute
Ecoli rRNA inh – reduced GFP signal of wild-type E. coli, primary screen, bacterial rRNA inhibitor project, GFP/RFP fluorescence, OD600, single point; GFP signal change (wild-type ribosome), % (test concentration not listed); AID 720706, 2013; 350,000 tested, 1.6% active; E. coli WT GFP vs humanized-ribosome RFP mutants, 24 h; hits give low values; DMSO median 0, no signal -100;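 active means significant combined selectivity score with lowered wild-type GFP, culture density cut under 30%, mutant RFP and density less affected; inactive means any of these conditions unmet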; further: one replicate is shown; some compounds called inactive have numbers as strong as hits
Ecoli rRNA inh OD600 – further read-out of Ecoli rRNA inh, marked with its call; OD600 change, %; measured here: OD600 growth;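 optical density of the mix in the first replicate; 0 = DMSO median and -100 = no signal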
Ecoli rRNA inh RFP – also measured in Ecoli rRNA inh; calls as there; RFP signal change, %; measured here: RFP humanized mutant strains;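 first replicate; 0 = DMSO median and -100 = no signal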
Numbers without * were called inactive; & = joins results of further samples. Some of the compounds tested, so the mix of outcomes need not match the whole.

Screening C[C@@H]1CN([C@H](C)CO)C(=O)Cc2cc(NS(=O)(=O)c3ccc(Cl)cc3)ccc2O[C@@H]1CN(C)S(=O)(=O)c1ccccc1 returned Ecoli rRNA inh -3, Ecoli rRNA inh OD600 -8 and Ecoli rRNA inh RFP -0.8.
Screening COc1ccc2c3c(n(C)c2c1)[C@H](CO)N(C(=O)Nc1ccc(F)cc1)CC31CCN(C(=O)CC2CC2)CC1 returned Ecoli rRNA inh -2, Ecoli rRNA inh OD600 -10 and Ecoli rRNA inh RFP 7.8.
Screening COCC(=O)Nc1ccc2c(c1)[C@H]1C[C@@H](CC(=O)NCc3ccc4c(c3)OCO4)O[C@@H](CO)[C@H]1O2 returned Ecoli rRNA inh 0, Ecoli rRNA inh OD600 -8 and Ecoli rRNA inh RFP 1.8.
For COc1ccc(CN(C)C[C@H]2Oc3ccc(NC(=O)Nc4c(C)noc4C)cc3C(=O)N([C@@H](C)CO)C[C@@H]2C)cc1 the results were Ecoli rRNA inh 5, Ecoli rRNA inh OD600 12 and Ecoli rRNA inh RFP -2.1.
For C[C@H](CO)N1C[C@H](C)[C@@H](CN(C)C(=O)C2CC2)Oc2cc(C#CCN(C)C)ccc2S1(=O)=O the results were Ecoli rRNA inh 9, Ecoli rRNA inh OD600 17 and Ecoli rRNA inh RFP -1.6.
For C[C@H]1CN([C@@H](C)CO)C(=O)c2cc(Br)cnc2O[C@H]1CN(C)C(=O)c1cnccn1 the results were Ecoli rRNA inh 6&5, Ecoli rRNA inh OD600 14&0 and Ecoli rRNA inh RFP 2.9&-1.0.
For COCC(=O)NC[C@H]1[C@H](c2ccccc2)[C@H](CO)N1C(C)=O the results were Ecoli rRNA inh 3, Ecoli rRNA inh OD600 6 and Ecoli rRNA inh RFP -0.8.
For CCS(=O)(=O)Nc1ccc2c(c1)C(=O)N(C)[C@H]1CC[C@H](CC(=O)NCc3ccccc3F)O[C@@H]1CO2 the results were Ecoli rRNA inh -1, Ecoli rRNA inh OD600 6 and Ecoli rRNA inh RFP -2.0.
COc1ccc2c3c([nH]c2c1)[C@H](CO)N(Cc1ccccc1F)CC31CN(C)C1 was read as Ecoli rRNA inh 2, Ecoli rRNA inh OD600 5 and Ecoli rRNA inh RFP -0.1.
Screening COc1cccc(CN2CCN(C(=O)[C@H]3O[C@@H](n4cnc5c(N)ncnc54)[C@H](O)[C@@H]3O)CC2=O)c1 returned Ecoli rRNA inh 0, Ecoli rRNA inh OD600 0 and Ecoli rRNA inh RFP -2.6.
Screening CCCCNC(=O)C1C(c2ccc(OC)cc2)=Nc2ccccc2N1C(=O)c1ccncc1 (stereo unspecified) returned Ecoli rRNA inh 0, Ecoli rRNA inh OD600 1 and Ecoli rRNA inh RFP 0.5.
C[C@@H]1CN([C@@H](C)CO)C(=O)c2c(c3ccccc3n2C)-c2ccccc2CO[C@H]1CN(C)S(=O)(=O)c1ccc(C(F)(F)F)cc1 was read as Ecoli rRNA inh 1&1, Ecoli rRNA inh OD600 9&5 and Ecoli rRNA inh RFP -2.1&-2.4.
`CC1=C(C(=O)N(C)C)CC(CC(=O)NCc2ccco2)C(=O)N1CCC1=CCCCC1` (stereo unspecified) gave Ecoli rRNA inh 3, Ecoli rRNA inh OD600 -3 and Ecoli rRNA inh RFP 1.4.
COC(=O)C[C@H]1CC[C@H]2[C@H](COc3ccc(NS(=O)(=O)c4ccccc4Cl)cc3C(=O)N2C)O1 was read as Ecoli rRNA inh -2, Ecoli rRNA inh OD600 3 and Ecoli rRNA inh RFP -0.8.
For CC(=O)N1[C@H](CO)[C@@H](c2ccccc2)C12CN(Cc1nccs1)C2 the results were Ecoli rRNA inh 5, Ecoli rRNA inh OD600 6 and Ecoli rRNA inh RFP -3.9.
COc1ccc2c3c(n(C)c2c1)[C@@H](CO)N(S(C)(=O)=O)CC31CN(C(=O)C2CCCC2)C1 was read as Ecoli rRNA inh -1, Ecoli rRNA inh OD600 -4 and Ecoli rRNA inh RFP -1.9.
For O=C(CC1CC1)N1CC2(C1)[C@H](c1ccccc1)[C@H](CO)N2C(=O)c1ccccn1 the results were Ecoli rRNA inh 1, Ecoli rRNA inh OD600 13 and Ecoli rRNA inh RFP -2.5.
C[C@H]1CN([C@@H](C)CO)S(=O)(=O)c2ccc(/C=C/c3ccccc3)cc2O[C@@H]1CN(C)C(=O)c1cccnc1 was read as Ecoli rRNA inh -2, Ecoli rRNA inh OD600 -4 and Ecoli rRNA inh RFP 1.2.
`C[C@@H]1CN([C@H](C)CO)C(=O)c2cc(NS(=O)(=O)c3cn(C)cn3)ccc2O[C@@H](C)CCCCO[C@@H]1CN(C)C(=O)c1ccccc1` gave Ecoli rRNA inh 2, Ecoli rRNA inh OD600 -2 and Ecoli rRNA inh RFP -0.5.
`CO[C@@H]1CN(C)C(=O)c2ccc(NC(=O)Nc3ccc(Cl)cc3)cc2OC[C@H](C)NC[C@H]1C` gave Ecoli rRNA inh -3, Ecoli rRNA inh OD600 -2 and Ecoli rRNA inh RFP 5.6.
`COc1ccc(CN2[C@H](CO)[C@@H]3c4ccccc4N(C(=O)CC(F)(F)F)C[C@@H]32)cc1` gave Ecoli rRNA inh -4, Ecoli rRNA inh OD600 -7 and Ecoli rRNA inh RFP 1.7.
For COc1ccc(S(=O)(=O)NC(=O)C2(C)CCN2C(=O)C2(c3ccc(Cl)cc3)CCC2)cc1 (stereo unspecified) the results were Ecoli rRNA inh -23, Ecoli rRNA inh OD600 -21 and Ecoli rRNA inh RFP -8.2.
For C[C@@H]1CN([C@@H](C)CO)C(=O)c2cccc(NC(=O)C3CC3)c2O[C@H]1CN(C)Cc1ccc(Cl)c(Cl)c1 the results were Ecoli rRNA inh -3, Ecoli rRNA inh OD600 -10 and Ecoli rRNA inh RFP -1.4.
Screening Cc1noc(C)c1S(=O)(=O)N(C)C[C@H]1OCCCC[C@@H](C)Oc2ccc(NS(=O)(=O)c3ccc(F)cc3)cc2C(=O)N([C@@H](C)CO)C[C@@H]1C returned Ecoli rRNA inh 2, Ecoli rRNA inh OD600 5 and Ecoli rRNA inh RFP 2.3.

Filtered by structure: those above containing a CF3 group
C[C@@H]1CN([C@@H](C)CO)C(=O)c2c(c3ccccc3n2C)-c2ccccc2CO[C@H]1CN(C)S(=O)(=O)c1ccc(C(F)(F)F)cc1 was read as Ecoli rRNA inh 1&1, Ecoli rRNA inh OD600 9&5 and Ecoli rRNA inh RFP -2.1&-2.4.
`COc1ccc(CN2[C@H](CO)[C@@H]3c4ccccc4N(C(=O)CC(F)(F)F)C[C@@H]32)cc1` gave Ecoli rRNA inh -4, Ecoli rRNA inh OD600 -7 and Ecoli rRNA inh RFP 1.7.

Additional entries
`C[C@@H]1CN([C@@H](C)CO)S(=O)(=O)c2ccc(C3=CCCC3)cc2O[C@@H]1CN(C)C(=O)c1ccccn1` gave Ecoli rRNA inh 5, Ecoli rRNA inh OD600 8 and Ecoli rRNA inh RFP 0.5.
Cc1noc(C)c1S(=O)(=O)Nc1ccc2c(c1)C(=O)N([C@@H](C)CO)C[C@@H](C)[C@H](CN(C)CC1CC1)OCCCC[C@H](C)O2 was read as Ecoli rRNA inh 2, Ecoli rRNA inh OD600 5 and Ecoli rRNA inh RFP -1.0.
Screening C[C@@H]1CN([C@@H](C)CO)C(=O)c2cc(NC(=O)NC3CCCCC3)ccc2O[C@@H](C)CCCCO[C@@H]1CN(C)C(=O)Cc1ccccc1 returned Ecoli rRNA inh -1, Ecoli rRNA inh OD600 -2 and Ecoli rRNA inh RFP 2.8.
Screening COCC(=O)N1CCCCN2[C@H](C1)[C@H](c1ccc(C#Cc3ccccc3)cc1)[C@@H]2CO returned Ecoli rRNA inh 7, Ecoli rRNA inh OD600 1 and Ecoli rRNA inh RFP 14.
Screening C[C@@H]1CCCCO[C@H](CN(C)S(=O)(=O)c2ccc(F)cc2)[C@@H](C)CN([C@H](C)CO)C(=O)c2cc(NC(=O)c3ccccc3)ccc2O1 returned Ecoli rRNA inh 0, Ecoli rRNA inh OD600 5 and Ecoli rRNA inh RFP 0.7.
For CN(C)CCN1CCN(C2CN(Cc3ccc(F)cc3)S(=O)(=O)C2)CC1 (stereo unspecified) the results were Ecoli rRNA inh 19, Ecoli rRNA inh OD600 12 and Ecoli rRNA inh RFP 2.8.
Screening CC=Cc1ccc2n(c1=O)C[C@@H]1[C@@H](CO)[C@H](C(=O)NCCc3cn(C)cn3)N(C(=O)C3CCC3)[C@H]21 (mixture of isomers) returned Ecoli rRNA inh 3, Ecoli rRNA inh OD600 2 and Ecoli rRNA inh RFP -2.4.
For Cc1noc(C)c1NC(=O)N(C)C[C@@H]1OCCCC[C@@H](C)Oc2ccc(NS(=O)(=O)c3cn(C)cn3)cc2C(=O)N([C@H](C)CO)C[C@@H]1C the results were Ecoli rRNA inh -1, Ecoli rRNA inh OD600 -2 and Ecoli rRNA inh RFP -0.7.
Screening COc1ccc(NC(=O)Nc2ccc3c(c2)C(=O)N([C@H](C)CO)C[C@@H](C)[C@@H](CN(C)C(=O)c2ccccc2)OCCCC[C@H](C)O3)cc1 returned Ecoli rRNA inh 0, Ecoli rRNA inh OD600 -6 and Ecoli rRNA inh RFP -0.3.
For COc1ccc(S(=O)(=O)Nc2cccc3c2O[C@H](CN(C)CC2CC2)[C@H](C)CN([C@@H](C)CO)C3=O)cc1 the results were Ecoli rRNA inh 1, Ecoli rRNA inh OD600 8 and Ecoli rRNA inh RFP -2.9.
COc1ccc([C@@H]2CC(=O)[C@@H]3CN(S(=O)(=O)c4ccc(C)cc4)[C@H](c4ccccc4)C[C@@H]3N2S(=O)(=O)c2ccccc2)cc1 was read as Ecoli rRNA inh 11, Ecoli rRNA inh OD600 5 and Ecoli rRNA inh RFP 3.5.
CCCN(C)C[C@H]1OCc2cnnn2CCCC(=O)N([C@H](C)CO)C[C@@H]1C was read as Ecoli rRNA inh 3&-3, Ecoli rRNA inh OD600 1&9 and Ecoli rRNA inh RFP 1.1&0.8.
Screening C[C@@H]1CN([C@H](C)CO)C(=O)Cc2cc(NC(=O)CCC(F)(F)F)ccc2O[C@@H]1CN(C)S(=O)(=O)c1cn(C)cn1 returned Ecoli rRNA inh 3, Ecoli rRNA inh OD600 12 and Ecoli rRNA inh RFP -0.5.
For CCCN(C)C[C@H]1OCCCC[C@@H](C)Oc2ccc(NS(=O)(=O)c3cn(C)cn3)cc2C(=O)N([C@H](C)CO)C[C@H]1C the results were Ecoli rRNA inh 1, Ecoli rRNA inh OD600 0 and Ecoli rRNA inh RFP -1.2.
`O=C(c1ccccc1F)N1C[C@H]2[C@@H](c3ccccc31)[C@H](CO)N2C(=O)c1ccccc1` gave Ecoli rRNA inh 3, Ecoli rRNA inh OD600 4 and Ecoli rRNA inh RFP 2.2.
`C[C@@H]1CCCCO[C@H](CN(C)C(=O)CCC(F)(F)F)[C@H](C)CN([C@@H](C)CO)C(=O)c2cc(NC(=O)Nc3ccccc3)ccc2O1` gave Ecoli rRNA inh 0, Ecoli rRNA inh OD600 1 and Ecoli rRNA inh RFP 0.4.
O=C(N[C@H]1CC[C@H](CCn2cc(Cc3ccccc3)nn2)O[C@H]1CO)c1ccccn1 was read as Ecoli rRNA inh 1, Ecoli rRNA inh OD600 0 and Ecoli rRNA inh RFP -1.6.
`CO[C@H]1CN(C)C(=O)c2ccc(NC(=O)Nc3cccc(F)c3)cc2OC[C@@H](C)N(C(=O)C2CC2)C[C@H]1C` gave Ecoli rRNA inh -10, Ecoli rRNA inh OD600 -15 and Ecoli rRNA inh RFP 3.5.
C[C@@H]1CCCCO[C@H](CN(C)Cc2ccc(C(=O)O)cc2)[C@H](C)CN([C@H](C)CO)C(=O)c2cc(NS(=O)(=O)c3cccs3)ccc2O1 was read as Ecoli rRNA inh 0, Ecoli rRNA inh OD600 6 and Ecoli rRNA inh RFP -2.1.
Screening C[C@@H]1CN([C@@H](C)CO)C(=O)c2cc(NS(=O)(=O)c3ccc(Cl)cc3)ccc2O[C@H]1CN(C)S(=O)(=O)c1ccccc1 returned Ecoli rRNA inh 0, Ecoli rRNA inh OD600 -12 and Ecoli rRNA inh RFP -2.5.
C[C@H]1CN([C@@H](C)CO)C(=O)c2cc(NC(=O)Cc3cn(C)c4ccccc34)ccc2O[C@@H]1CN(C)Cc1ccc(Oc2ccccc2)cc1 was read as Ecoli rRNA inh 3, Ecoli rRNA inh OD600 -7 and Ecoli rRNA inh RFP 7.6.
Cc1noc(C)c1S(=O)(=O)N(C)C[C@@H]1Oc2ccc(NC(=O)Cn3cnnn3)cc2CC(=O)N([C@H](C)CO)C[C@@H]1C was read as Ecoli rRNA inh 2, Ecoli rRNA inh OD600 14 and Ecoli rRNA inh RFP 0.5.
CCCNC(=O)N1[C@H](CO)[C@@H](c2ccccc2)[C@@H]1CNC(=O)c1ccc(F)cc1 was read as Ecoli rRNA inh -11, Ecoli rRNA inh OD600 -19 and Ecoli rRNA inh RFP 3.7.
For C[C@@H]1CN([C@@H](C)CO)S(=O)(=O)c2ccc(C#CC3(O)CCCC3)cc2O[C@H]1CN(C)C the results were Ecoli rRNA inh -7, Ecoli rRNA inh OD600 -5 and Ecoli rRNA inh RFP -5.2.
COc1ccccc1C#Cc1ccc2c(c1)O[C@H](CN(C)Cc1ccccc1)[C@@H](C)CN([C@H](C)CO)S2(=O)=O was read as Ecoli rRNA inh 5, Ecoli rRNA inh OD600 5 and Ecoli rRNA inh RFP -2.4.

2 successive entries out of the list so far, quoted:
C[C@@H]1CCCCO[C@H](CN(C)Cc2ccc(C(=O)O)cc2)[C@H](C)CN([C@H](C)CO)C(=O)c2cc(NS(=O)(=O)c3cccs3)ccc2O1 was read as Ecoli rRNA inh 0, Ecoli rRNA inh OD600 6 and Ecoli rRNA inh RFP -2.1.
Screening C[C@@H]1CN([C@@H](C)CO)C(=O)c2cc(NS(=O)(=O)c3ccc(Cl)cc3)ccc2O[C@H]1CN(C)S(=O)(=O)c1ccccc1 returned Ecoli rRNA inh 0, Ecoli rRNA inh OD600 -12 and Ecoli rRNA inh RFP -2.5.
